Autofluor counter: flagged as autofluorescent in microsphere protease counterscreen; compound autofluorescence counterscreen, microsphere flow cytometry; active compounds read high; fluorescence intensity (no concentration beside the values); actives 3.1% (n = 360,000); AID 624483;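 active = at least 3 SD above the mean of all compounds, about 16000 in these data; inconclusive = too few beads counted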;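 note: 100 nL of 1 mM stock went into each well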
PrP 5UTR inh: inhibition of PrP 5' UTR reporter expression. actives 0.35% (n = 340,000). AID 488862, 2010. inhibition, % (test concentration not listed). cell-based PrP 5' UTR mRNA reporter, plate reader;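 active = every replicate at 50% or more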;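 note: 0 = median of the neutral control wells; tested in H4 reporter cells; numbers are from one replicate; inactives centre near -14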
Sa ugtP lethal: growth inhibition of ugtP-null S. aureus, primary screen, RN4220 ugtP deletion, OD600 | actives 0.54% (n = 330,000) | growth inhibition, % (concentration not given with the values) | 16 h; some inactives read as strong as hits;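 active = z-score under -3 and OD600 up to 0.15 on both plates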;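 note: plate controls were untreated wells for no effect and antibiotic for full effect; wells of about 80 µL received 100 nL stock; the first replicate is given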
Mtb hypoxia inh: PubChem AID 1159583; actives 0.1% (n = 300,000); M. tuberculosis hypoxia-regulated fluorescent reporter, fluorescence; fluorescence inhibition, % (test concentration not listed);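 active = 35 to 45% if threefold the growth effect, above 45% if 1.5-fold the growth effect; inactive = the rest, general growth blockers included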;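 note: wells of about 50 µL received 100 nL stock; 0% = vehicle wells and 100% = reference inhibitor wells; whole bacteria with a GFP reporter of the hypoxia response; strong numbers were not always called active; many hits fall short of the cut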
Sa RN4220 lethal: growth inhibition of S. aureus RN4220, primary screen, OD600. 16 h. inhibition, % (concentration not given with the values). actives 0.33% (n = 330,000);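 active = z-score of -3 or lower and OD600 up to 0.18 on both plates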;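 note: plate controls were untreated cells for no effect and reference antibiotic for full effect; stock transfer was 100 nL into about 80 µL; one replicate is shown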
BJeLR lethal: MLPCN primary cell-based screen for lethality selective to Ras in HRASV12 cells; BJeLR (HRASV12) viability, CellTiter-Glo ATP luminescence, 48 h; reference of the scale not given here; inhibition, % (test concentration not listed); actives 0.17% (n = 300,000);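 active = replicate mean above 50%; inconclusive = above 50% but judged a plate artefact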;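 note: 50 nL library stock added to about 25 µL; numbers are from one replicate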
Mtb hypoxia inh growth: recorded beside Mtb hypoxia inh, whose call it bears; growth inhibition, %; measured here: M. tuberculosis growth (absorbance);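 0% = vehicle and 100% = reference antibiotic; read after six days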
* = called active by the depositor; ? = inconclusive; . = no result given.

cpd	Molecule	PrP 5UTR inh	Mtb hypoxia inh growth	BJeLR lethal	Sa ugtP lethal	Sa RN4220 lethal	Autofluor counter	Mtb hypoxia inh
1	Cc1cccc(-n2c(C)cc(C=NNC(=O)c3ccco3)c2C)c1	.	0	.	-3	4.2	.	2
2	COC(=O)c1ccc(CNC(=O)c2ccc(COc3ccccc3)cc2)cc1	-29	7	-7	-6	-6.4	2521	2
3	CSc1cccc(NS(=O)(=O)c2ccc3c(c2)CCN3C(C)=O)c1	-14	2	18	3	9.1	3517	-4
4	CC1SC(=NN=Cc2ccco2)N(Cc2ccc(F)cc2)C1=O (stereo not drawn)	.	-6	.	6	-0.9	.	-5
5	Cc1cccc(S(=O)Cc2ccc(C(=O)NC3CCN(Cc4ccccc4)CC3)o2)c1 (stereo not drawn)	-6	0	-3	18	0.3	4772	1
6	NS(=O)(=O)c1ccc(CCNCc2cccnc2)cc1	-11	7	0	1	2.1	3816	4
7	COc1ccc(N2C(=O)C3CCCN3C2c2cccc(OC)c2)cc1 (stereo not drawn)	-12	.	-9	11	1.7	5875	.
8	Cc1noc(C)c1COc1ccccc1C(=O)NCCOc1ccccc1	-15	13	.	1	2.4	?	-4
9	NS(=O)(=O)c1ccc(NC(=O)c2ccc(S(=O)(=O)N3CCc4ccccc43)cc2)cc1	-7	-1	9	-4	4.6	2543	-11
10	CCOc1ccc2nc(NCCNC(=O)C(C)(C)C)c(C)cc2c1	-31	9	.	-4	5.4	4486	0
11	COc1ccc(-n2nnc3c(=O)n(Cc4cccc(C)c4)cnc32)cc1	-7	4	4	5	1.1	11497	8
12	CCOC(=O)C1CCN(C(=O)Nc2ccc(Cl)cc2Cl)CC1	-30	-3	4	5	3.1	2208	-1
13	Cc1ccccc1C(=O)NNC(=O)C1CC(=O)N(Cc2ccccc2)C1 (stereo not drawn)	-32	1	-1	7	2.7	6242	1
14	Cc1cc(=O)[nH]c(SCC(=O)NC2CCCCCCC2)n1	-20	7	.	4	-0.3	8265	-4
15	O=C(CSC1=NCCS1)N1CCOCC1	-32	3	12	4	2.2	2959	13
16	COc1ccc(C2C(C(=O)c3cccs3)=C(O)C(=O)N2Cc2cccnc2)cc1OC (stereo not drawn)	-15	11	1	18	8.8	4518	0
17	O=C(Cc1csc(-c2cccc(Cl)c2)n1)Nc1cccc(S(=O)(=O)NC2=NCCC2)c1	0	-1	0	2	3.5	5264	5
18	Cc1cc(NC(=S)N(Cc2ccc(Br)cc2)Cc2ccc(C(=O)O)cc2)ccc1Cl	-35	9	0	36	39	4301	3
19	CC(=O)Nc1cccc(-c2nc3ccccc3c(=O)o2)c1	-9	.	0	8	3.1	3810	.
20	CN(CC#CC1(O)c2ccccc2-c2ccccc21)Cc1ccccc1	-22	-4	0	4	5.0	11140	2
21	CCCCn1c(N)c(N(CCC(C)C)C(=O)CSc2nncn2-c2ccccc2)c(=O)[nH]c1=O	-10	-3	.	6	3.7	8534	-1
22	COc1ccc(N2CCN(c3ccnc4cc(Cl)ccc34)CC2)cc1	-12	1	10	7	2.4	5635	8
23	CC[C@]12c3[nH]c4ccc(OC)cc4c3CCN1C(=O)C(CC(=O)NCCN1CCOCC1)C[C@@H]2C(=O)N1CCN(C(=O)c2ccco2)CC1 (stereo partly drawn)	-15	8	.	7	4.8	3941	-6
24	O=C(CSc1nnc2scc(-c3ccc(F)cc3)n12)NCc1ccco1	-20	5	-4	16	7.9	7831	16
25	COc1ccc(CNC(=O)c2c(C)cc(=O)oc2C)cc1OC	-12	0	1	-3	4.5	3271	1
26	CC1(C)CC(=O)C(C(=O)/C=C/NCCc2ccccc2)C(=O)C1	-4	.	1	10	-0.7	2175	.
27	CCC(C)(C)n1nnnc1C(c1cc2cc(C)cc(C)c2[nH]c1=O)N1CCN(Cc2ccc3c(c2)OCO3)CC1 (stereo not drawn)	-19	.	-3	.	.	11276	.
28	O=c1[nH]cc([N+](=O)[O-])cc1Br	-24	6	23	2	3.6	10364	3
29	S=C(Nc1ccc(Br)cc1)N1CCCC1	-22	.	-6	-2	1.1	2351	.
30	COC(=O)C=c1sc(=C(C#N)C(=O)N2CCCCC2)n(-c2ccccc2)c1=O	.	7	.	1	3.4	.	11

Results in Mtb hypoxia inh, Autofluor counter and BJeLR lethal, for 4 of the compounds above:
cpd	SMILES	Mtb hypoxia inh	Autofluor counter	BJeLR lethal
27	CCC(C)(C)n1nnnc1C(c1cc2cc(C)cc(C)c2[nH]c1=O)N1CCN(Cc2ccc3c(c2)OCO3)CC1 (stereo not drawn)	.	11276	-3
29	S=C(Nc1ccc(Br)cc1)N1CCCC1	.	2351	-6
22	COc1ccc(N2CCN(c3ccnc4cc(Cl)ccc34)CC2)cc1	8	5635	10
21	CCCCn1c(N)c(N(CCC(C)C)C(=O)CSc2nncn2-c2ccccc2)c(=O)[nH]c1=O	-1	8534	.

Continued.
cpd	Molecule	PrP 5UTR inh	Mtb hypoxia inh growth	BJeLR lethal	Sa ugtP lethal	Sa RN4220 lethal	Autofluor counter	Mtb hypoxia inh
31	CC(=NNC(=O)CSCc1ccc([N+](=O)[O-])cc1)c1ccccc1	.	2	.	14	-7.7	.	-1
32	Cc1[nH]c(=O)[nH]c(=O)c1CSc1nnc(C(CC(C)C)NC(=O)OC(C)(C)C)o1 (stereo not drawn)	.	-2	.	5	5.4	.	11
33	CC(C)(C=O)Cc1cc(C(C)(C)C)c(O)c(C(C)(C)C)c1	-1	-10	.	3	-7.2	5462	3
34	CCC1(c2ccccc2)NC(=O)N(CC(=O)N(C)CC(=O)Nc2ccc(F)c(F)c2F)C1=O (stereo not drawn)	-9	0	-3	11	3.4	?	2
35	NC(=O)CN1CCCC1=O	4	-11	-8	-7	1.5	6469	0
36	NS(=O)(=O)c1ccc(NC2=CC(c3ccc([N+](=O)[O-])cc3)N(c3ccc(S(N)(=O)=O)cc3)C2=O)cc1 (stereo not drawn)	.	-2	9	2	4.6	4659	-3
37	Cc1nc(Nc2ccccc2O)c2oc3ccccc3c2n1	-1	-2	-3	5	0.0	3160	7
38	CCOC(=O)c1[nH]c(C)c(C(=O)NCc2ccc(C)cc2)c1C	-20	.	6	1	1.9	5836	.
39	COc1cc(CN2CCC(C(=O)NCC(C)(C)CN(C)C)CC2)ccc1OCc1ccccc1	-24	1	-1	0	1.5	3685	12
40	COc1ccc(OC)c(NC(=O)Cc2nn(C)c(=O)c3ccccc23)c1	-10	.	-4	0	9.2	3471	.
41	Cc1cc(C(=O)Nc2cccc3cccnc23)ccc1[N+](=O)[O-]	-33	-2	4	13	7.0	2426	1
42	CN(C)C=NC(=S)Nc1ccccc1Cl	.	0	.	0	3.4	.	15
43	Cc1ccc2ncnc(Oc3ncccc3NC(=O)C(C)(C)C)c2c1	-4	5	-6	0	1.6	4053	12
44	CCOC(=O)/C(=C\c1ccc(C)cc1)NC(=O)c1ccccc1	-10	.	-3	.	.	2718	.
45	CCn1c(=S)[nH]c2cc(S(=O)(=O)N3CCCCC3)ccc21	-20	-8	9	-14	0.9	10844	-1
46	CN(CC1CCCO1)S(=O)(=O)c1ccc(C(=O)Nc2ccc3c(c2)OCO3)cc1 (stereo not drawn)	1	0	-8	7	1.3	2460	6
47	CCOC(=O)c1cnc2c(C(=O)OC)cccc2c1NCCN1CCOCC1	10	3	-14	1	5.0	15860	4
48	COc1ccc2oc(=NNC(=O)c3cccs3)c(C(N)=O)cc2c1	.	-5	.	4	7.2	.	-5
49	COC(=O)c1ccc(Oc2nc(C)cc(Oc3ccccc3)n2)cc1	-27	7	-3	4	7.6	3315	7
50	O=C(NN=Cc1ccncc1)c1sc2ccccc2c1Cl	.	-10	.	-5	0.6	.	-10

In a second layout: entries from further up.
15: O=C(CSC1=NCCS1)N1CCOCC1
16: COc1ccc(C2C(C(=O)c3cccs3)=C(O)C(=O)N2Cc2cccnc2)cc1OC (stereo not drawn)
17: O=C(Cc1csc(-c2cccc(Cl)c2)n1)Nc1cccc(S(=O)(=O)NC2=NCCC2)c1
18: Cc1cc(NC(=S)N(Cc2ccc(Br)cc2)Cc2ccc(C(=O)O)cc2)ccc1Cl
19: CC(=O)Nc1cccc(-c2nc3ccccc3c(=O)o2)c1

assay / compound,15,16,17,18,19
PrP 5UTR inh,-32,-15,0,-35,-9
Mtb hypoxia inh growth,3,11,-1,9,.
BJeLR lethal,12,1,0,0,0
Sa ugtP lethal,4,18,2,36,8
Sa RN4220 lethal,2.2,8.8,3.5,39,3.1
Autofluor counter,2959,4518,5264,4301,3810
Mtb hypoxia inh,13,0,5,3,.

Additional results
cpd	Molecule	PrP 5UTR inh	Mtb hypoxia inh growth	BJeLR lethal	Sa ugtP lethal	Sa RN4220 lethal	Autofluor counter	Mtb hypoxia inh
51	Cc1cc(/C=C2\C(=O)NC(=O)N(c3ccc(F)cc3)C2=O)c(C)n1-c1ccc(C(=O)O)cc1	-9	.	1	.	.	4354	.
52	O=S(=O)(O)C(c1ccccc1)C1(O)CCCCC1 (stereo not drawn)	-18	10	.	-5	-1.5	3646	13
53	CCC(C)[C@H](NC(=O)[C@@H]1CSC2c3ccccc3C(=O)N21)C(=O)NCc1ccncc1 (stereo partly drawn)	-4	11	2	4	3.2	5582	11
54	CNc1nc(SCc2ccc(C)cc2)nc2c1CCCC2	-10	.	2	-16	12	.	.
55	O=C(CN1C(=O)c2ccccc2S1(=O)=O)Nc1ncc(Cl)cc1Cl	47	7	.	-12	3.1	3717	2
56	Cc1ccc(Nc2nnc(C(C)(C)C)c(=O)n2N)cc1	-24	-2	1	2	5.9	2551	2
57	O=C(O)CCCN1C(=O)c2ccc(Oc3cccc([N+](=O)[O-])c3)cc2C1=O	-13	1	-5	4	3.0	2602	7
58	Cn1c2ccccc2c2nnc(SCCN3CCOCC3)nc21	-20	4	16	1	-2.2	6426	-3
59	COc1ccc(C(=O)NCCc2nnc3ccc(SCC(=O)Nc4ccccc4F)nn23)cc1	-1	-1	-2	4	4.0	4407	-6
60	CCCn1cc(CN2CCN(Cc3ccc(C)o3)C(CCO)C2)c(C)n1 (stereo not drawn)	0	3	3	7	1.4	2227	2
61	CC(=NNC(=O)c1cccs1)c1c(O)cc(C)oc1=O	.	4	.	4	4.2	.	4
62	CCOC(=O)c1cnc2c(c(C)nn2CC)c1NC1CC1	-3	10	9	3	-0.2	4520	18
63	CSCCn1c(C(C)(C)C)cc(C(=O)O)c1C	-19	0	8	-1	4.9	3512	-8
64	Cc1cc2ncc(-c3cccs3)nc2cc1C	10	3	17	8	7.8	3737	15
65	COc1ccc(NC(=O)C(=O)NCC(c2ccco2)N2CCc3ccccc3C2)cc1OC (stereo not drawn)	-23	-2	8	11	1.3	5887	6
66	CCCc1cc(=O)[nH]c(SCC(=O)Nc2ccc3c(c2)CCC3)n1	-31	4	-4	5	3.6	3374	-4
67	CN(C(=O)CCN1CCCO1)C1CCCN(Cc2ccccc2F)C1 (stereo not drawn)	-11	7	4	-2	-1.9	.	-8
68	COc1ccccc1-n1c(O)c(C=NCc2ccccn2)c2ccccc2c1=O	-11	-3	-3	0	3.8	5723	-6

Screens deposited in PubChem BioAssay by several laboratories.
